Bioassay records: PubChem BioAssay, National Center for Advancing Translational Sciences (NCATS)
PINK1 expr mod: changes PINK1 expression | PINK1 immunofluorescence, high-content cytometry, 24 h | Potency, µM (series often up to 76.6 µM), for inactives: at the top dose activation (PINK1 increase), hits mostly activators | 0.2% of 410,000 active | AID 624263; active = well fitted activation curve with a large enough effect; inconclusive = small, poorly fitted or top-dose-only effect; inactive = flat fitted curve, though single readings scatter; cell line not stated here;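 note: % of control where 0% means no effect; nearly all actives have a fitted effect of over 65% in size; a mitochondrial uncoupler was the plate control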
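Readout is PINK1 immunofluorescence, quantified alongside mitochondrial, cell and nuclear markers by laser-scanning microplate cytometry. Cells from a stable line were exposed to compound titrations (5 concentrations) for 24 hours, with CCCP controls.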
ClpP mod: qHTS Assay for Activators of ClpP; purified B. subtilis ClpP, FRET peptide cleavage, 20 min; Potency, µM (highest dose often 57.5 µM), for inactives: at the highest dose activity change, negative = active; 1.9% of 340,000 active; AID 651965, 2013; active = well fitted falling curve with a large enough effect; inconclusive = small, poorly fitted or top-dose-only effect; inactive = no such curve, though single readings can be large or run the other way; note: the source files actives as falling curves though it sought activators and does not explain the sign; nearly all actives have a fitted effect of over 65% in size; many hits overshoot -100%
Target sequence (P80244 whole entry, looked up): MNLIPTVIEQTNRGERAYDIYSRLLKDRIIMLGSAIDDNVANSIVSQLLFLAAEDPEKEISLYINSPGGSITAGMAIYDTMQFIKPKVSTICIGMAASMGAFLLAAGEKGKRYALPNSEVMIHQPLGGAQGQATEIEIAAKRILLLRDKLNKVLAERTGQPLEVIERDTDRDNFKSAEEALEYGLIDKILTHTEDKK
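FRET quenching reversal measured ClpP activation: 10 microg/mL B. subtilis ClpP at pH 8 with the FRET-FV decapeptide, read at 430 nm after 320 nm excitation. The 20-min minus 0-min signal was scaled between DMSO/no-enzyme wells and ADEP (5.8 microM final).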
The depositor's hits bear a star; ? = inconclusive; [ ] = another dose, or the depositor's remark. Potency is the fitted concentration of half-maximal effect. An excerpt (hit frequency here may not be typical).

SMILES	PINK1 expr mod	ClpP mod
CCc1ccc(CNC(=O)c2ccc(CS(=O)c3ccc(Br)cc3)o2)cc1 (stereo not given)	-0.7%	-0.2%
Cc1ccc(C)c(CN2C(=O)c3ccccc3Sc3ccc(C(=O)NC4CCCC4)cc32)c1	0.4%	1.9%
O=C(NCc1ccc2c(c1)OCO2)c1ccc2c(c1)N(Cc1cccc(Cl)c1)C(=O)c1ccccc1S2=O (stereo not given)	0.7%	-1.0%
CN(C)c1ccc(CNC(=O)c2cnc3sc(N4CCOCC4)nn3c2=O)cc1	-0.4%	-10.9%
COc1ccccc1-c1c(C)nn2c(C(F)(F)F)cc(-c3ccccc3)nc12	0.5%	0.4%
CC(C)c1ccc(NC(=O)CN(C)S(=O)(=O)c2ccc3c(c2)n(C)c(=O)c(=O)n3C)cc1	1.3%	0.3%
N#C/C(=C\c1ccc(-c2ccc(C(=O)O)cc2)o1)C(=O)Nc1ccccc1C(=O)O	-0.7%	4.5%
COc1ccc(CNC(=O)c2cc(-c3ccc(Br)s3)nc3ccccc23)cc1	-0.2%	4.0%
COC(=O)CSc1nnc(-c2cccc(O)c2)o1	19.2%	1.6%
CC(C)CCNC(=O)c1nn(C)c2c1CSc1ccccc1-2	0.4%	-3.4%
C=C1C(=O)OC2C1CCC(C)=CCCC1(C)OC21 (stereo not given)	-1.3%	-1.0%
Clc1ccc2c(ccc[n+]2CCC2CCCCC2)c1	0.4%	-19.1%
CC(=O)N1CCc2c(sc3c2c(=O)n(-c2ccccc2)c(=O)n3CC(=O)c2ccccc2)C1	-0.8%	-1.6%
COc1cc(Cl)c(NC(=O)CCS(=O)(=O)c2cc3c(cc2Cl)NC(=O)CO3)c(OC)c1	4.6%	-0.4%
CC(C)C[C@H]1CN([C@@H](Cc2ccc(O)cc2)CN2CCC[C@H]2CN2C(=O)C(=O)NC[C@@H]2Cc2ccccc2)C(=O)C(=O)N1CC1CCCCC1	-1.1%	-0.5%
Cc1c(C(=O)Nc2ccccc2Cl)oc2ccc(S(=O)(=O)N3CCCCC3)cc12	0.0%	5.2%
COc1cc(C2C(=O)N(C3CCC(C)CC3)CC(=O)N2CCc2ccc(Cl)cc2)ccc1OC(C)C (stereo not given)	0.6%	1.1%
CCc1ccccc1NC(=O)Cn1c(=O)c2cccn2c2ccc(F)cc21	-0.1%	-26.9%
COc1ccccc1C(=O)Nc1ccccc1C(=O)OCc1cc(=O)n2ccsc2n1	-1.9%	-5.1%
CC(C)(C)n1nnnc1C(c1cc2ccccc2o1)N1CCCC1 (stereo not given)	3.1%	-2.2%
Cc1ccc(CCNC(=O)c2nn(C)c3c2CSc2ccccc2-3)cc1	2.7%	-0.8%
O=S(=O)(c1ccc(Cl)cc1)N1CCN(c2nc(Nc3cc(Cl)ccc3O)nc3ccccc23)CC1	0.5%[38.3 µM]	-1.7%[31.2 µM]
CCn1c(=O)c2cc(C(=O)NCCc3cccc(C)c3)sc2c2ccccc21	1.7%	?
COc1ccc(Br)cc1C1NC(c2ccc3c(c2)OCO3)=CC(c2ccccc2O)N1 (stereo not given)	1.3%	-4.7%
Cc1ccc(CNc2oc(-c3ccc(COc4ccc(Cl)cc4)o3)nc2C#N)cc1	-1.7%	?

Random excerpt: 3 compounds from above, in no set order.
SMILES	PINK1 expr mod	ClpP mod
C=C1C(=O)OC2C1CCC(C)=CCCC1(C)OC21 (stereo not given)	-1.3%	-1.0%
CCc1ccccc1NC(=O)Cn1c(=O)c2cccn2c2ccc(F)cc21	-0.1%	-26.9%
N#C/C(=C\c1ccc(-c2ccc(C(=O)O)cc2)o1)C(=O)Nc1ccccc1C(=O)O	-0.7%	4.5%

Other compounds:
SMILES	PINK1 expr mod	ClpP mod
CCCN(C)C1CN(Cc2cn(Cc3ccc(OC)cc3)nn2)S(=O)(=O)C1 (stereo not given)	-0.7%	0.0%
O=C(Nc1ccc(F)cc1)C1CCN(c2nc3ccccc3n3cccc23)CC1	-0.8%	-11.3%
COC(=O)c1ccc(NC(=O)C(=O)NCC(c2cccnc2)N2CCN(c3ccccc3)CC2)cc1 (stereo not given)	-0.7%	1.4%
Cc1ccc(-c2cc3c(n2-c2ccccc2F)CC(C)(C)CC3=O)cc1	-1.5%	-9.1%
COc1ccc(CCNc2nc(-c3ccc(C)cc3)cc(C(F)F)n2)cc1OC	1.2%	-11.4%
COc1c(C)cccc1C(=O)Nc1ccc(Cl)c(-c2nc3cc(C)ccc3o2)c1	4.9%	25.1µM*
Cc1ccc(C(=O)Nc2ccc3c(c2)N(C)C(=O)c2ccccc2S3)cc1	0.4%	-6.0%
CC(C)Oc1ccc(C(=O)N(Cc2ccco2)Cc2cccs2)cc1	0.5%	-1.1%
CC(C)(C)C1CCc2c(sc(NC(=O)Cn3nnc(-c4ccccc4F)n3)c2C#N)C1 (stereo not given)	-1.0%	0.4%
Cc1cc(C)c(NC(=O)CSc2nc(C)cc(C)c2C#N)c(C)c1	0.3%	-4.4%
Cc1nc2c(C(=O)NCCCN(CC(C)C)CC(C)C)cnn2c(C)c1Cc1c(F)cccc1Cl	0.2%	-19.9%
COc1ccc(CCC(=O)NCc2nc3cccnc3n2Cc2ccc(F)cc2)cc1	-0.2%	0.0%
O=c1c2cccnc2n(Cc2ccccc2F)c(=O)n1Cc1ccccc1Cl	4.8%	?
Cc1ccc(CN2CCc3nc(N4CCN(C)CC4)ncc3C2)s1	0.7%	2.5%
COc1cc(Nc2ncc3c(n2)CCN(Cc2ccc(OC(C)C)c(OC)c2)C3)cc(OC)c1	-0.7%	-2.0%
O=c1c2oc3ccccc3c2n(Cc2ccc(Cl)cc2)c(=O)n1Cc1ccccc1	2.6%	-27.9%
COc1ccc(C2N=C(Nc3nc4ccccc4o3)NC3=C2C(=O)CC(C)(C)C3)cc1 (stereo not given)	-0.5%	3.8%
CCOc1ccc(S(=O)(=O)NCc2ccc3c(c2)CCN3C(=O)c2ccc(C)cc2)cc1	2.4%	-5.7%
COc1cccc(-c2nc(SCC(=O)NCC3CCCO3)c(-c3ccc(Cl)cc3)[nH]2)c1 (stereo not given)	-0.6%	25.1µM*
CCC(C)NC(=O)CSc1nc2cc3c(cc2c(=O)n1CCCCCC(=O)NCc1ccc(OC)cc1)OCO3 (stereo not given)	-0.3%	1.9%
Cc1ccc(-n2cnc3cc(C(=O)NC4CCCCCC4)ccc32)cc1Cl	5.1%	1.4%
Cc1sc2ccccc2[n+]1C	0.7%	-2.4%
Cc1cc2c(cc1NC(=O)c1ccccc1C)n(C)c(=O)c(=O)n2C	-0.9%	-13.0%
Cc1ccc(Cn2c(CNC(=O)Cc3cccc(C)c3)nc3cccnc32)cc1	1.6%	-0.3%
CCOC(=O)c1c(NC(=O)c2nc(SCC)ncc2Cl)sc2c1CCCC2	0.0%	-0.2%

(listing goes on)
SMILES	PINK1 expr mod	ClpP mod
COc1cccc(-c2csc(-c3c(N)c(C(=O)c4ccccc4)n4ccccc34)n2)c1	2.8%	1.3%
COc1ccccc1CNC(=O)c1cc2sccc2n1Cc1ccc(F)cc1	4.4%	?
Cc1cccc(NC(=O)c2cc3c([nH]c2=O)CC(c2ccccc2)CC3=O)c1 (stereo not given)	2.1%	-0.6%
Cc1ccc(NC(=O)Cn2c(=O)n(Cc3nc(C)no3)c(=O)c3cc4c(cc32)OCO4)c(Cl)c1	-1.3%	6.1%
COc1ccc(Cn2c(CCC(=O)Nc3cc(OC)c(OC)c(OC)c3)nc3cccnc32)cc1	1.5%	-1.0%
COc1ccc(Nc2nnc(-c3ccc(C)c(S(=O)(=O)NCc4nc5ccccc5[nH]4)c3)c3ccccc23)cc1	1.9%	-9.5%
Nc1c(C(=O)Nc2cccc(Cl)c2)sc2nc3c(cc12)CN(Cc1ccccc1)CC3	14.7%	-28.9%
CC1(c2nnnn2-c2ccc3c(c2)OCCO3)CCC(=O)N1CC(F)(F)F (stereo not given)	0.3%	-1.0%
Cc1ccccc1Nc1c(-c2ccc(N3CCOCC3)cc2)nc2ccc(Cl)cn12	1.0%	4.1%
O=C(Cc1ccc(Cl)cc1)NCC(c1cccs1)S(=O)(=O)c1ccc(Cl)cc1 (stereo not given)	-0.8%	-3.2%
CCN1C(=O)c2ccccc2S(=O)c2ccc(C(=O)N3CCN(c4ccccc4)CC3)cc21 (stereo not given)	1.5%	-2.0%
CCN(c1cccc(C)c1)S(=O)(=O)c1c(C)nc2sc(C)cn2c1=O	3.3%	-4.3%
COc1cccc(CNC(=O)Cn2cc3c(n2)-c2c(oc(C(=O)N4CCOCC4)c2C)CC3)c1	0.5%	-1.0%
COc1ccc(-c2nc3scc(CCNS(=O)(=O)c4cc(F)ccc4OC)n3n2)cc1OC	5.4%	-2.4%
CCCCCCC1CCC(C(=O)NC(C(=O)O)C(C)C)CC1 (stereo not given)	-0.4%	-2.4%
CCCNC(=O)OC1CC2CC1[C@H]1CCCCN1C2=O (stereo not given in full)	0.4%	0.6%
CCOc1ccccc1Nc1nc(-c2ccc(C)cc2)c(CC(=O)O)s1	7.3%	-6.3%
COc1ccc(-n2c(Cc3ccccc3)nnc2SCc2nc(-c3cccs3)no2)cc1	-0.8%	1.2%
CN1CCc2c(sc3c2C(=O)NC(c2ccc(OC(=O)c4ccc(Cl)cc4)cc2)N3)C1 (stereo not given)	-0.6%	-6.9%
CCN(C(=O)Cn1nc(Cc2cccnc2)c2ccccc2c1=O)c1cc(C)ccc1C	-0.5%	-2.1%
Cc1[nH]c2ccccc2c1C1(O)C(=O)N(Cc2ccc(Cl)cc2)c2ccccc21 (stereo not given)	0.8%	-1.3%
CC1=C(C(=O)Nc2cccc(C(F)(F)F)c2)C2(CCCCCC2)OC1=O	10.4%	-0.2%
CCOc1ccc(-c2cn3nc(CC(C)C)sc3n2)cc1	0.8%	0.4%
CCC(=O)Nc1ccc(S(=O)(=O)NCc2cccn2Cc2cccc(C)c2)cc1	-1.5%	-1.3%
Cc1ccc2oc3c(c(=O)c2c1)C(c1ccccc1F)N(c1ccccn1)C3=O (stereo not given)	-0.6%	-1.7%

Complete entries from above. Values in the order: PINK1 expr mod	ClpP mod
`COc1ccc(Cn2c(CCC(=O)Nc3cc(OC)c(OC)c(OC)c3)nc3cccnc32)cc1` in the list: 1.5%	-1.0%
`COc1ccccc1CNC(=O)c1cc2sccc2n1Cc1ccc(F)cc1` in the list: 4.4%	?
`CCOc1ccccc1Nc1nc(-c2ccc(C)cc2)c(CC(=O)O)s1` in the list: 7.3%	-6.3%

Further entries.
SMILES	PINK1 expr mod	ClpP mod
CCC[N+](C)(C)c1ccc(/C=C/c2ccnc3ccccc23)cc1	3.16µM*	1.3%
CCN1CCOC(=O)C1CC(=O)Nc1cccc(OC)c1 (stereo not given)	0.9%	-3.0%
CCCC12CN3CC(CCC)(CN(C1)C3c1c[nH]c3ccc(OC)cc13)C2=O (stereo not given)	1.1%	-0.3%
Cc1ccc(N2C(=O)CSC23C(=O)N(CC(=O)NCc2ccccc2)c2ccccc23)cc1C (stereo not given)	-5.5%	-0.1%
Cc1nn(-c2ccccc2)c(OC(=O)C(C)C)c1Sc1ccccc1	1.4%	0.0%
O=C(Nc1ccc2c(c1)CCCN2C(=O)c1cccs1)c1cccc(C(F)(F)F)c1	-1.6%	2.0%
Cc1ccc(CNC(=O)C2CCCN(S(=O)(=O)c3cn(C)cn3)C2)cc1 (stereo not given)	0.4%	-1.4%
O=C(NCc1ccc(F)cc1)c1ccc(NC(=O)N2CC3CCCN3c3ccccc32)cc1 (stereo not given)	-1.1%	-7.9%
O=C(CN1C(=O)CC(c2ccc(F)cc2)=Nc2ccccc21)NCc1ccccc1Cl	2.6%	-0.4%

An excerpt from above in order of their number in PINK1 expr mod, high to low:
compound	PINK1 expr mod
COc1cc(C2C(=O)N(C3CCC(C)CC3)CC(=O)N2CCc2ccc(Cl)cc2)ccc1OC(C)C (stereo not given)	0.6%
Cc1c(C(=O)Nc2ccccc2Cl)oc2ccc(S(=O)(=O)N3CCCCC3)cc12	0.0%
COc1cc(Nc2ncc3c(n2)CCN(Cc2ccc(OC(C)C)c(OC)c2)C3)cc(OC)c1	-0.7%
